KCNQ2 pot – enhances the rat KCNQ2 potassium channel; O88943; CHO-K1 KCNQ2, FluxOR thallium flux fluorescence; hits give high values; B-score at 10 µM; actives 0.54% (n = 310,000); AID 2239;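 active means fluorescence ratio B-score at least 3 SD of library B-scores, with initial fluorescence B-score within 3 SD, cut at about 5.3 in these data; same plate scores as AID 2156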;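 further: B-score of peak minus minimum over baseline fluorescence ratio after K+ and Tl+ stimulus; positive B-score means potentiation of KCNQ2 with more thallium influx and brighter signal; only the inactives scoring about 0 or higher are listed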
Target sequence (O88943 whole entry, looked up): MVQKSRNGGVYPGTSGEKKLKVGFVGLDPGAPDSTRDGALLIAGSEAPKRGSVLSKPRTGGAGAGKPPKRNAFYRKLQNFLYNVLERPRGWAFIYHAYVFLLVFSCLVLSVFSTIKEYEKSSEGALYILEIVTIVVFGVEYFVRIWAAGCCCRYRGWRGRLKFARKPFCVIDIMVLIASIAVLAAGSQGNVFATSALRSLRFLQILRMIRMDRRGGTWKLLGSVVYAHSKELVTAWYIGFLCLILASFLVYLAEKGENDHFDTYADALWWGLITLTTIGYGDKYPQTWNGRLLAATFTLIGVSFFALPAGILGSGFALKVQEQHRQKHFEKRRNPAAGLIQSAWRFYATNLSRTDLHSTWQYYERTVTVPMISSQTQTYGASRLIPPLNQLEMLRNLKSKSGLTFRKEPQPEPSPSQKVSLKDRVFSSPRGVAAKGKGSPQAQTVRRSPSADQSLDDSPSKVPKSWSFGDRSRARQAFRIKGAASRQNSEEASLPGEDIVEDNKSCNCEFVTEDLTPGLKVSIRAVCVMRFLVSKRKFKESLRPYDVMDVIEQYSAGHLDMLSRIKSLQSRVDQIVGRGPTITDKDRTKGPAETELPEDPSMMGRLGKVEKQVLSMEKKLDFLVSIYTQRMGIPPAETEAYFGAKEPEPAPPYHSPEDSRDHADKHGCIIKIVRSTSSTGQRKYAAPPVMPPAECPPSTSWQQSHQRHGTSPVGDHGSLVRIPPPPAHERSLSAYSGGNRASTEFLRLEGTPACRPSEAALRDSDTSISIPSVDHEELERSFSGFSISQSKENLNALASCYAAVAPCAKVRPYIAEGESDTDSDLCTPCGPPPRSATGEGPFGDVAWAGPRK
KCNQ2 pot baseline – also measured in KCNQ2 pot; calls as there; B-score; compound at 10 µM; measured here: initial fluorescence intensity artifact check;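 brightness before thallium and not channel activity; 0 = typical well and far values either way flag optical interference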
The depositor's hits bear a star. An excerpt; count on the stated rates, not on these rows.

Values in the order: KCNQ2 pot | KCNQ2 pot baseline
O=C(Cn1cnc2c(nnn2Cc2ccccc2)c1=O)NCc1ccccc1Cl
→ 0.89 | 0.03
CCCCC1CC(/C(C)=N/NC(N)=O)OC1=O (centres undefined)
→ 1.58 | -1.97
CCCCc1cc(=O)oc2cc(C)cc(OCC(=O)NCc3cccnc3)c12
→ 0.08 | 0.57
CC(C)C(NS(=O)(=O)c1ccc2c3c(cccc13)C(=O)N2)C(=O)O (centres undefined)
→ 0.06 | 0.24
CCCCNC(=O)NCc1cnn(C)c1C
→ 0.08 | -0.3
Cc1ccc(Nc2cc(-n3cccn3)ncn2)c(C)c1
→ 3.82 | -1.14
O=[N+]([O-])c1cccc(-c2ncc3ccccn23)c1
→ 0.42 | 0.68
C=CCSc1nc2sc3c(c2c(=O)n1-c1ccccc1)CCN(C)C3
→ 0.18 | 1.01
O=C(C1CCN(Cc2nc(-c3ccc(Cl)cc3)no2)CC1)N1CCOCC1
→ 1.19 | -0.99
Cc1cc(OCC(=O)N2CCN(c3ccccc3)CC2)c2c(C)c(C)c(=O)oc2c1
→ 0.79 | -1.53
CC1(C)Nc2ccccc2N(CCC(=O)N2CCOCC2)C1=O
→ 1.86 | -1.09
O=C(Nc1nnc(S(=O)(=O)N2CCOCC2)s1)c1ccccc1Cl
→ 0.33 | 2.26
c1cncc(CNc2cccc(-c3nc4ccccc4[nH]3)c2)c1
→ 1.06 | 0.25
O=C(Nc1ccc(Cl)c(Cl)c1)N1CCOCC1
→ 0.59 | -0.22
CCOC(=O)c1cn(Cc2cccc(C)c2)nn1
→ 1.32 | 0.23
COc1ccc(NC(=S)N2CCN(c3ccccn3)CC2)cc1OC
→ 0.74 | -1.71
O=C(c1cccs1)N1CCN(Cc2cccnc2)CC1
→ 0.51 | 0.08
COC(=O)c1ccccc1OCc1cccc(C)n1
→ 0.22 | 0.06
O=C(Nc1ccc(Cl)cn1)c1cccnc1
→ 1.07 | -1.31
CC(C)C(=O)Nc1cccc(C(=O)Nc2nnc(C(C)C)s2)c1
→ 0.06 | -0.97
Cc1ccc(C(=O)OCC(=O)c2ccc[nH]2)s1
→ 0.14 | -0.94
O=Cc1cccn1-c1c(C(=O)O)cnn1-c1ccccc1
→ 0.27 | -0.22
CCC(C)(C)C(=O)Nc1ccc(C(N)=O)cc1
→ 0.76 | 0.2
CCCCOc1ccc(OCCCN2CCOCC2)cc1
→ 1.36 | -0.31
CN(C)S(=O)(=O)c1cc(C(=O)O)c(NC2CCCCC2)cc1Cl
→ 1.92 | 1.21
N#Cc1nnn2c1nc(N)c1c(F)cccc12
→ 0.01 | 0.56
Cc1ccc(CNC(=O)Cn2ccc3cc(S(=O)(=O)N4CCCC4)ccc32)o1
→ 1.8 | 0.31
CN(C)CCNS(=O)(=O)c1ccc(N2CCN(c3ccc(F)cc3)CC2)c([N+](=O)[O-])c1
→ 1.15 | -0.75
CSc1nnc(-c2cnccn2)n1Cc1ccccc1
→ 0.11 | -2.09
CCCCOc1ccc(N(CC(=O)NCC2CCCO2)C(=O)CCC(=O)Nc2cc(C)ccn2)cc1 (centres undefined)
→ 0.09 | 0.4

Other records follow.
Values in the order: KCNQ2 pot | KCNQ2 pot baseline
CC(C)CCNC(=O)C1CCN(c2nnc(-n3cccc3)s2)CC1
→ 0.38 | 0.66
O=C(CSCc1ccc(Br)cc1)N=Nc1c(O)[nH]c2ccccc12
→ 2.22 | -0.85
NC(=O)c1nsc(C(=O)N(c2ccccc2)C(C(=O)NC2CCCC2)c2ccncc2)c1N (centres undefined)
→ 0.26 | 1.31
Cn1c(CNc2ccc(F)cc2)nc2ccccc21
→ 0.99 | 1.77
COC(=O)C1CCN(CC(N)=O)CC1
→ 0.25 | 0
CCCOc1ccc(N2C(=O)CC(NCC#N)C2=O)cc1 (centres undefined)
→ 0.34 | 0.78
CCCc1ccc(OCCNC(=O)c2ccco2)cc1
→ 0.23 | -0.08
OC1(c2ccccc2)Cc2cccc[n+]2C1c1ccccc1 (centres undefined)
→ 0.95 | -0.76
COC(=O)c1ccc(CNC(=O)N2CCN(S(=O)(=O)c3ccc(C)cc3)CC2)cc1
→ 1.09 | -0.01
O=C(Nc1cccc(S(=O)(=O)c2cccc(NC(=O)c3ccco3)c2)c1)c1ccco1
→ 0.17 | 2.13
CCCOC(=O)CSc1nc(N)c(C#N)c(-c2ccco2)c1C#N
→ 1.48 | 1.27
COc1ccc(NC(=O)CSc2nnc(-c3ccco3)n2C)cc1
→ 2.47 | 0.09
Cc1ccc(S(=O)(=O)N2CCN(C(=O)Cc3ccc4c(c3)OCCO4)CC2)cc1C
→ 0.83 | -1.11
C/C(=N/NC(=O)CN1CCN(S(=O)(=O)c2ccc(C)cc2)CC1)c1ccco1
→ 0.02 | 1.26
Cc1cc(F)ccc1S(=O)(=O)Nc1ccccc1C(=O)Nc1ccc2[nH]c(=O)[nH]c2c1
→ 0.36 | 1.83
Cc1cccc(CNC(=O)c2cc(S(=O)(=O)N3CCOCC3)cn2C)c1
→ 0.22 | 0.15
COc1ccc(C(=O)NCC(=O)N2CCCC(C)C2)cc1OC (centres undefined)
→ 1.33 | -2.17
CCOc1ccc(N2CC(O)=C(c3ccccc3)C2=N)cc1
→ 0.21 | -0.21
CCOc1ccc(Nc2nc(-c3sc(N)nc3C)cs2)cc1
→ 1.37 | 0.44
O=C(CSc1nc(=O)n(CCCN2CCOCC2)c2c1CCC2)Nc1ccc(F)cc1F
→ 0.8 | 1.5
C/C=C/C(=O)OCC(=O)Nc1c(Cl)cccc1Cl
→ 0.38 | 0.78
Cc1ccccc1NC(=O)COC(=O)Cc1ccsc1
→ 0.13 | -1.3
Cc1cc(C)c(C)c(S(=O)(=O)N2CCC(C(=O)N3CCCCCCC3)CC2)c1C
→ 0.04 | -2.02
CC1CCCCN1C(=O)Nc1cccc(Cl)c1 (centres undefined)
→ 0.47 | -0.56
O=C(O)c1ccc(-c2sc(Nc3ccccc3)n[n+]2-c2ccccc2)cc1
→ 1.32 | 0.14
CN(C)S(=O)(=O)c1cccc(NC(=O)c2ccc3c(c2)S(=O)(=O)N=C2CCCCCN23)c1
→ 0.04 | 0.1
O=C1CCN(C(=O)c2ccc(Cl)cc2)N1
→ 0.86 | -0.57
Cc1cc(NC(=O)CSc2nc3cc(Cl)ccc3s2)no1
→ 0.59 | -0.98
Cc1cc(C)c(S(=O)(=O)n2cc(C(C)C(N)C(=O)O)c3ccccc32)c(C)c1 (centres undefined)
→ 0.18 | -1.24
C=CCNC(=O)c1ccc(OC)cc1OC
→ 0.51 | 2.11

(continued)
Values in the order: KCNQ2 pot | KCNQ2 pot baseline
O=C(Nn1c(C2CCC2)nc2ccccc2c1=O)C1CCC1
→ 1.75 | 0
O=C(c1noc2c1CCCC2)N1CCN(c2ccc(F)cc2)CC1
→ 1.52 | 0.34
CC(=O)Nc1cccc(NC(=O)CSc2nnc(NC(=O)C3CC3)s2)c1
→ 1.19 | -0.24
O=C(Cc1ccccc1)N/N=C/c1ccc(Cl)cc1Cl
→ 1.02 | 2.47
COc1ccc(Nc2cccc(Cl)c2)c(C(=O)O)c1
→ 0.88 | -0.66
CCOc1cc(/C=N/n2c(COc3ccccc3)n[nH]c2=S)ccc1O
→ 0.48 | -1.12
CCCCCCN1N=C(C)C(C(=O)c2ccc(Cl)cc2)C1=O (centres undefined)
→ 0.82 | 1.4
O=C1N/C(=N/O)S/C1=C/c1cccc([N+](=O)[O-])c1
→ 2.1 | -0.37
O=C(O)CCNC(=O)CCCn1nnc2ccccc2c1=O
→ 0.25 | 0.18
O=C(Nc1cc2c(cc1Cl)OCCCO2)c1ccc(F)cc1
→ 0.77 | -0.31
Cc1csc2c(N3CCN(C(=O)Nc4ccc(Cl)c(Cl)c4)CC3)ncnc12
→ 2.18 | 0.8
Cc1cc(NC(=O)Cn2nnc3sc4c(c3c2=O)CCC(C(C)(C)C)C4)no1 (centres undefined)
→ 0.52 | -1.18
CCCCCCC(C)n1cc(C(C)=O)c(=O)[nH]c1=O (centres undefined)
→ 1.93 | -1.11
CC(C)(C)CC(=O)O/N=C(\N)c1ccccn1
→ 0.13 | -0.11
CC1CC(C)(C)CC(=O)C1C(=O)c1ccccc1 (centres undefined)
→ 0.97 | 0.84
CN(C)S(=O)(=O)c1ccc(-c2csc(N/N=C/c3ccco3)n2)cc1
→ 0.78 | 0.05
CCCn1c(=O)c(C(=O)NCC2CCCO2)c(O)c2ccccc21 (centres undefined)
→ 0.24 | -0.01
Cc1ccc(OCc2ccc(C#N)cc2)c(C(=O)c2cc(C#N)c(=O)n(C3CC3)c2)c1
→ 0.39 | -1.18
COc1ccc(C2(c3ccc(O)cc3O)CC(c3ccccc3Cl)NC(=S)N2)cc1 (centres undefined)
→ 6.09* | 1.43*
O=C(CNC(=O)c1cccs1)NCC(=O)OCc1c(F)cccc1Cl
→ 1.72 | 0.6
O=C(CC1SC(=NCC2CCCO2)NC1=O)Nc1cccc2ccccc12 (centres undefined)
→ 0.94 | 0.62
C=CCNC(=O)CSc1nc2sc3c(c2c(=O)n1CCCOC)CCC3
→ 0.62 | -0.2
NS(=O)(=O)c1ccc(CNC(=O)c2ccc(Br)o2)cc1
→ 0.58 | 0.39
CCC(C)(C)n1nnnc1C(c1cc(OC)ccc1OC)N1CCN(Cc2ccccc2)CC1 (centres undefined)
→ 1.4 | -0.25
O=C(NCc1ccccc1Cl)C1CCCN(C(=O)Nc2ccc(F)cc2)C1 (centres undefined)
→ 0.94 | -1.21
CC1(C)C2CCC(C2)C1(C)NC(=O)C[N+](C)(C)C (centres undefined)
→ 0.13 | -1.66
O=C(Nc1c(F)c(F)c(F)c(F)c1F)C1CCCCC1
→ 0.54 | -0.3
CCOc1cc(/C=C2/C(=N)N3OC(C)=CC3=NC2=O)ccc1OC
→ 0.23 | 0.32
Cc1cccc(CS(=O)(=O)c2ncc(Cl)c(C(=O)Nc3ccc(F)cc3)n2)c1
→ 0.92 | -0.17
CCOC(=O)C1=C(C)NC(SCC(N)=O)=C(C#N)C1c1ccccc1 (centres undefined)
→ 1.25 | 1.47

Continuation:
Values in the order: KCNQ2 pot | KCNQ2 pot baseline
Cc1cnc(Nc2nc3ccccc3o2)nc1C(=O)Nc1cccc(C(F)(F)F)c1
→ 0.08 | -1.34
COc1cccc(N2CCN(C3CC(=O)N(c4ccc(Cl)cc4)C3=O)CC2)c1 (centres undefined)
→ 0.02 | -0.69
COc1ccc(/C=C/C2=NN(C)C(=O)CC2)cc1
→ 0.73 | -0.52
Cc1ccc(S(=O)(=O)NCC(c2cccnc2)N2CCOCC2)cc1 (centres undefined)
→ 0.95 | 0.99
CCCN(Cc1ccccc1)C(=S)Nc1cccc(C)c1C
→ 1.81 | -1.21
CCn1cnc2cc(NS(=O)(=O)c3ccc(C)cc3)ccc21
→ 2.31 | -1.01
O=C(Nc1ccccc1C(=O)N1CCCC1)C1CCN(c2ncccn2)CC1
→ 0.48 | -0.45
Cc1cc(C(=O)N/N=C2\CCCC(=O)C2)c(C)n1-c1ccccc1
→ 0.26 | -0.16
COC(=O)CCSC(=S)N1CCOCC1
→ 0.09 | -0.13
O=C(N/N=C/c1ccco1)C1(O)c2ccccc2-c2ccccc21
→ 1.31 | -2.18
COc1ccc(CN(C(=O)COc2ccccc2)c2ccccc2C(=O)O)cc1
→ 0.41 | 1.44
CCOC(=O)N1CCC(N2Cc3cccc(C(=O)N4CC(C)CC(C)C4)c3C2=O)CC1 (centres undefined)
→ 0.85 | -0.03
COC(=O)CCN(C(=O)c1cccc(OC(C)=O)c1)c1ccccn1
→ 1.03 | -2.05
CCOC(=O)N1CCC(NC(=O)c2cc3c(=O)n(C)c4ccccc4c3n2C)CC1
→ 0.95 | -0.66
COc1ccc(S(=O)(=O)N(C(C)=O)c2ccc3oc(=O)sc3c2)cc1
→ 0.01 | -0.07
CC(C)(C)c1ccc(N2C(=N)SCC2=O)cc1
→ 0.37 | -0.07
COc1ccc(N2CCN(S(=O)(=O)c3ccc4c(c3)OCCO4)CC2)cc1
→ 1.76 | -1.01
CCC[N+]1(CC#CCC(c2ccccc2)c2ccccc2)CCCCC1
→ 1.48 | -0.15
CCCCNC(=O)Nc1ccon1
→ 0.02 | -1.02
N#Cc1ccccc1Sc1ccccc1C(=O)OCC(=O)NC1CCCCC1
→ 1.06 | 0.33
CSC1=NCCN1C(=O)Cc1cccc2ccccc12
→ 0.26 | 1.19
COc1ccc(N2CCN(C(=O)C3CCN(S(=O)(=O)c4ccccc4)CC3)CC2)cc1
→ 0.33 | 0.1
CCN(CC(=O)NC(C)C)C(=O)c1ccc(S(=O)(=O)N(C)c2ccccc2OC)cc1
→ 0.4 | 0.04
Cc1ccnc(N2CCCC(C(=O)Nc3cc(F)ccc3C)C2)n1 (centres undefined)
→ 0.75 | 1.71
O=C(CCC(=O)N1CCCC1)Nc1nnc(C2CCCCC2)s1
→ 0.54 | -0.03
Cn1ncc([N+](=O)[O-])c1C(=O)N1CCOCC1
→ 0.75 | -0.44
Cc1cc(C(=O)NCc2ccco2)c2ccccc2n1
→ 3.47 | 2.47
CCOc1cccc(C(=O)Nc2cccc(-c3nnc(-c4ccc(C)cc4)o3)c2)c1
→ 0.17 | 1.22
CCOc1ccc(Nc2nc3ccccc3c(=O)s2)cc1
→ 0.06 | -0.02
COc1ccc(/C=C/C(=O)Nc2ccc(N3CCOCC3)cc2)cc1
→ 0.2 | -0.04
CCn1nnc(NC(=O)c2ccc(-c3ccccc3[N+](=O)[O-])o2)n1
→ 0.15 | 1.03
COc1ccccc1-c1nc(C#N)c(N2CCCCCC2)o1
→ 0.73 | -0.02
O=C(Nc1ccc(Cl)cc1)c1cnc(-c2ccccc2)nc1-c1ccccc1
→ 1.33 | 0.11

Quoted at random: 5 entries already listed, in no set order.
Values in the order: KCNQ2 pot | KCNQ2 pot baseline
O=C(Nc1ccc(Cl)cn1)c1cccnc1
→ 1.07 | -1.31
CCOc1ccc(Nc2nc(-c3sc(N)nc3C)cs2)cc1
→ 1.37 | 0.44
CCOC(=O)c1cn(Cc2cccc(C)c2)nn1
→ 1.32 | 0.23
CCOc1cccc(C(=O)Nc2cccc(-c3nnc(-c4ccc(C)cc4)o3)c2)c1
→ 0.17 | 1.22
O=C(NCc1ccccc1Cl)C1CCCN(C(=O)Nc2ccc(F)cc2)C1 (centres undefined)
→ 0.94 | -1.21

Screening results (PubChem BioAssay)
